Assay outcomes deposited in PubChem BioAssay by National Center for Advancing Translational Sciences (NCATS).
AID923 = qHTS Assay for Allosteric/Competitive Inhibitors of Caspase-1: Spectroscopic Profiling in AFC Spectral Region; compound fluorescence, AFC spectral region (405/520 nm); almost no hit is shown here; Potency, µM (top dose mostly 57.5 µM), inactives show at the highest dose fluorescence increase, most hits filed as activators; 1.1% of 75,000 active; AID 923, 2007; active = well fitted activation curve with a large enough effect; inconclusive = small, poorly fitted or top-dose-only effect;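 note: potency is the fitted concentration of half-maximal effect; 0% is about no effect; scaled to a free AFC standard on each plate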
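Titrations up to 57 uM read every 20 sec for 3 min (405/520 nm) with 50 nM caspase 1 and 5 uM Ac-WEHD-AFC, pH 7.5 HEPES buffer. Fluorescence-vs-time intercept gave baseline, scaled against on-plate AFC standard.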
TSHR agonist = activates the human thyroid stimulating hormone receptor | P16473 | HEK293-CNG-TSHR cells (CNG channel as cAMP sensor), membrane potential dye, cAMP | 0.48% of 73,000 active | Potency, µM (top dose mostly 57.1 µM), for the others: at the highest dose activation, hits mostly activators; active = well fitted activation curve of enough size with the parental cells flat; inconclusive = any curve in the parental cells; inactive = parental cells flat and receptor cells flat or falling; note: potency is the fitted concentration of half-maximal effect; % of control where 0% means no effect; weak receptor curves with flat parental cells got no call and are not listed
Target sequence (P16473 whole entry, looked up): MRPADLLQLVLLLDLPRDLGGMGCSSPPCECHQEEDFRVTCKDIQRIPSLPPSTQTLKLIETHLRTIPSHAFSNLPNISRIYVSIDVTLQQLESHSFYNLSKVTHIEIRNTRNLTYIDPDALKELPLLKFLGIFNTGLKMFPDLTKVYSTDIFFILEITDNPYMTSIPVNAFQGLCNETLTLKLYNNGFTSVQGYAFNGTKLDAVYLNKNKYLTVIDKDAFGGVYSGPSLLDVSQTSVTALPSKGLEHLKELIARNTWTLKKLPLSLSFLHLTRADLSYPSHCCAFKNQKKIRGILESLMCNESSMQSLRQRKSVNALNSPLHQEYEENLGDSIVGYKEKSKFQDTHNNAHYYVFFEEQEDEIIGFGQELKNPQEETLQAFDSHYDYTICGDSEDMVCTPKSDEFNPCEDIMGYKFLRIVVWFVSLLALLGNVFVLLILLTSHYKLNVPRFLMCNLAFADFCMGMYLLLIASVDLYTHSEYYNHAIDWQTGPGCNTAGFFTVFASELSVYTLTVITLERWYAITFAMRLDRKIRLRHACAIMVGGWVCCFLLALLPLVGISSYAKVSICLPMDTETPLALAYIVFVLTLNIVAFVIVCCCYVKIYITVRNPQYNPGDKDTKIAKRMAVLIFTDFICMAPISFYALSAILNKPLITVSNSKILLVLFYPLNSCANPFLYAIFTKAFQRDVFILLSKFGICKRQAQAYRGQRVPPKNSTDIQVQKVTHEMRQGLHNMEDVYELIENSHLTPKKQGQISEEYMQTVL
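cAMP rise detected as CNG-channel membrane depolarization by fluorescent dye (emission 590 nm), 30 min after compound, following 60 min dye loading containing 100 uM RO 20-1724 at room temperature. Cells: TSHR/CNG HEK 293, with parental CNG HEK 293 as control.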
A647 fluor = compound autofluorescence in A647 spectral region; Compound fluorescence, A647 channel (570/671 nm), Tris buffer; max dye-equivalent concentration, M; 59,000 tested, under 10 active; AID 592; active means above 1 µM dye equivalent; inconclusive means 0.1 to 1 µM; inactive means 0.1 µM or less;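 note: values scaled relative to a standard on each plate; highest value over a series up to 38 µM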
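Spectral profiling of library compounds in pH 8.0 Tris: 15 min room-temperature incubation, single ex/em pair (570/671 nm), response normalized to Alexa 647 equivalents.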
Resorufin fluor = resorufin region autofluorescence; AID 588; Compound fluorescence, resorufin region 547/598 nm, buffer; active compounds read high; max dye-equivalent concentration, M; 0.04% of 59,000 active; active = above 10 nM dye equivalent; inconclusive = 1 to 10 nM; inactive = 1 nM or less; a few of its hits are not listed in these tables; note: highest value over a series up to 38 µM
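Dye-equivalent concentration values derive from comparing each well's 547/598 nm fluorescence against resorufin standards included on every plate. Incubation was 15 min at room temperature in 100 mM Tris, pH 8.0.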
A488 autofl = compound autofluorescence in A488 spectral region. max dye equivalency, M. AID 591. compound autofluorescence, A488 spectral region, dye equivalency; active compounds read high. 0.1% of 59,000 active; active = above 10 nM dye equivalent; inconclusive = 1 to 10 nM; inactive = 1 nM or less; about half of its hits are not listed in these tables;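 note: highest value over a series up to 38 µM; compound alone in buffer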
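Readout is A488 dye-equivalent concentration, calibrated by a per-plate six-point Alexa 488 series. Compounds in 100 mM Tris buffer pH 8.0 were incubated 15 min at room temperature. Plates were imaged using 480 nm excitation/540 nm emission filters.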
An asterisk follows results filed as active; i = inactive; u = inconclusive; x = no result given; [ ] = remark or other dose.

SMILES	AID923	TSHR agonist	A647 fluor	Resorufin fluor	A488 autofl
O=C(NCCC1=CCCCC1)c1ccc(=O)oc1	x	x	1.2e-09	i	i
O=C(NCc1cccnc1)C1CCCCN1S(=O)(=O)c1ccc(F)cc1 (configuration not stated)	-1.4%	u	2.09e-08	i	i
NC(=O)CSc1nnc(COc2ccccc2)n1C1CCCCC1	-0.1%	10.6%	1e-09	i	i
c1ccc(Cc2nnc3sc(-c4ccc5c(c4)OCCO5)nn23)cc1	0.4%	28.7%	x	x	x
COC1CCCCC1NS(=O)(=O)c1ccccc1 (configuration not stated)	-0.6%	-0.3%	1e-09	i	i
CCCCn1c(CN2CCN(C(=O)OCC)CC2)nc2c1c(=O)[nH]c(=O)n2C	-1.5%	5.6%	1.02e-08	i	i
COC(=O)C1CN(S(=O)(=O)c2ccc(C)cc2)CCN1S(=O)(=O)c1ccc(C)cc1 (configuration not stated)	0.1%	11.6%	3.7e-09	i	i
NC(N)=NC(N)=Nc1ccc(S(=O)(=O)O)cc1	-0.3%[11.5 µM]	5.3%[11.4 µM]	8.3e-09	i	i
Cc1cccc(NC(=O)C23CCC(C)(/C(=N/O)C2)C3(C)C)c1 (configuration not stated)	-0.9%	-2.5%	3.7e-09	i	i
Cn1c(=O)oc2cc(S(=O)(=O)NC3CCCCCCC3)ccc21	0.2%	x	3.17e-08	i	i
COc1ccc(S(=O)(=O)N(CCCN2CCOCC2)Cc2ccc(OC)c(OC)c2)cc1	0.1%	-22.7%	6.3e-09	i	i
Cc1ccccc1NC(=O)CC1SCCNC1=O (configuration not stated)	-0.4%	-0.2%	9.3e-09	i	i
CC1(C)Cc2ccccc2-c2nnc(-c3cccc(O)c3)n21	-1.8%	u	1e-09	i	i
CCCCn1c(CN2CCN(c3cccc(Cl)c3)CC2)nc2c1c(=O)[nH]c(=O)n2C	-1.8%	u	2.2e-09	i	i
Cc1ccc(C)c(NC(=O)CS(=O)(=O)c2cn(C)c3ccccc23)c1	-0.5%	3.4%	1.34e-08	i	i
Cn1c(=O)n(CC(=O)OCc2ccccc2)c(=O)c2c1nc1n2CCCN1C1CCCCC1	0.6%	-30.6%[inhibitor]	8.8e-09	i	i
CN(CC(=O)NCCC1=CCCCC1)S(=O)(=O)c1ccc2c(c1)CCC(=O)N2	-0.7%	-2.7%	x	x	x
CC1(C)CC(=O)c2cnn(-c3nc4ccccc4[nH]3)c2C1	-1.8%	-3.3%	7.8e-09	i	i
CC(C)c1nc(N2CCOCC2)c(C#N)c2c1CCC2	x	x	2.1e-09	i	i
COc1ccc(NC(=O)c2oc3ccc(S(=O)(=O)N4CCC5(CC4)OCCO5)cc3c2C)cc1	-2.4%	x	3.74e-08	i	i
CC(C)OC(=O)C[C@H](NC(=O)OC(C)(C)C)c1ccccc1	-4.0%[11.5 µM]	-9.2%[11.4 µM]	x	x	x
Cc1cc2n(n1)C(c1ccccc1)Nc1ccccc1-2 (configuration not stated)	-0.8%	3.2%[11.4 µM]	8.9e-09	i	i
CCCc1cc(=O)[nH]c(SCC(=O)N2CCN(c3ccc(F)cc3)CC2)n1	2.5%	-7.2%	6e-09	i	i
Cc1nc2oc(C(=O)c3ccc(Br)cc3)c(N)c2c2c1COC(C)(C)C2	x	x	1e-09	i	i
CS(=O)(=O)N1CCCC(C(=O)NCCCN2CCc3ccccc3C2)C1 (configuration not stated)	-0.7%	7.3%	4.7e-09	i	i
(next part)
SMILES	AID923	TSHR agonist	A647 fluor	Resorufin fluor	A488 autofl
Cc1cc(SCC(N)=O)nc(SCC(=O)c2ccccc2)n1	0.8%	2.3%	2.6e-08	i	i
Cc1ccc(NC(=O)COC(=O)CN2CSCC2=O)cc1C	1.8%	-4.5%	3.35e-08	i	i
CCOc1ccccc1-n1c(COc2ccccc2)nnc1SCC(N)=O	-1.4%	u	3.52e-08	i	i
Cn1c(=O)c2c(ncn2CCCc2ccccc2)n(C)c1=O	1.7%	u	2.16e-08	i	i
CN(C)S(=O)(=O)c1ccc(S(=O)(=O)N(CC(=O)Nc2ccccc2)CC2CCCO2)cc1 (configuration not stated)	0.6%	-13.0%	3.91e-08	i	i
Cn1c(SCC(N)=O)nnc1C1CCN(C(=O)NCc2ccccc2)CC1	0.7%	u	2.41e-08	i	i
O=C(O)C(c1ccccc1)C1(O)CCCC1 (configuration not stated)	2.0%	4.0%	7.3e-09	i	i
COc1ccccc1C1CC(=O)Nc2cc3c(cc21)OCCO3 (configuration not stated)	-1.7%	x	2.6e-09	i	i
O=C(CN1CCc2ccccc21)Nc1ccc2c(c1)OCO2	0.9%	-0.8%	1e-09	i	i
O=S(=O)(NCCNS(=O)(=O)c1cccs1)c1cccs1	0.3%	3.0%	2.02e-08	i	i
CCCCCCn1c(C(C)O)nc2ccccc21 (configuration not stated)	x	x	4.3e-09	i	i
CCCC(=O)c1cc(F)c(N2CCN(CCC#N)CC2)cc1C	1.0%	15.9%	x	x	x
CCOC(=O)c1cnc(-c2cccc(OC)c2)[nH]c1=O	-0.2%	23.3%	1.22e-08	i	i
CCOC(=O)CCn1nc(-c2ccccc2)cc1N	0.3%	7.5%	2e-08	i	i
Cc1cc2ncc(-c3ccc(Cl)cc3)c(N)n2n1	-1.8%	8.2%	x	x	x
O=C(Cc1cccs1)N1CCC(c2nc3c(nnn3Cc3ccc(F)cc3)c(=O)[nH]2)CC1	0.9%	-3.0%	3.9e-09	i	i
CCOC(=O)Nc1cccc(NC(=O)c2cc(OC)cc(OC)c2)c1	0.4%	22.3%	1.77e-08	i	i
CC(C)NC1(C(N)=O)CCN(Cc2ccccc2)CC1	-0.4%[11.5 µM]	1.6%[11.4 µM]	3.85e-08	i	i
COc1ccc(F)cc1S(=O)(=O)Nc1ccc(C)cc1	-0.5%	-4.7%	1e-09	i	i
OC(COCc1ccccc1)CN1CCCC1 (configuration not stated)	0.8%	1.5%	5.1e-09	i	i
CC(=O)Nc1ccc(S(=O)(=O)Nc2cccc(NC(=O)C(C)(C)C)c2)cc1	-2.1%	2.9%	1.4e-09	i	i
CC1(C)CC(=O)c2cnc(N3CCc4ccccc4C3)nc2C1	-0.5%	16.6%	3.24e-08	i	i
Oc1ccc2ccccc2c1C=NCc1cn2ccsc2n1	-0.4%	-4.5%	6.8e-09	i	i
COc1ccc2[nH]cc(CCNc3ccnc(-c4ccc(N(C)C)cc4)n3)c2c1	5.3%	15.6%	1.68e-08	i	i
CCOc1ccccc1Oc1c(C)oc2cc(OC(=O)N3CCOCC3)ccc2c1=O	-1.7%	u	x	x	x
Following part:
SMILES	AID923	TSHR agonist	A647 fluor	Resorufin fluor	A488 autofl
COc1ccc(-n2nnnc2SCC(=O)Nc2nnc(C)s2)cc1OC	1.3%	2.5%	2.84e-08	i	i
Cc1nc2sc(C(=O)O)c(N)c2c2c1COC(C)(C)C2	5.1%	9.3%	7.1e-09	i	i
Cc1nnc(SCCC(C)C)[nH]c1=O	1.4%	12.8%	x	x	x
Cc1cc(NC(=O)CN2CCC(n3nnc4cc(C(F)(F)F)ccc43)CC2)no1	-1.4%	2.4%	1.09e-08	i	i
Cc1c(NC(=O)CSC2=C(C#N)C(c3ccccc3F)CC(=O)N2)c(=O)n(-c2ccccc2)n1C (configuration not stated)	-1.7%	8.7%	4.26e-08	i	i
Cc1ccc(-c2nnc(N3CCN(C(=O)CN4C(=O)c5ccccc5C4=O)CC3)c3ccccc23)cc1	17.3%	19.1%	9.2e-09	i	i
COC(=O)C1(S(=O)(=O)C2(C(=O)OC)CCCC2)CCCC1	-2.2%	-3.0%[11.4 µM]	5.2e-09	i	i
O=C(c1ccc2snnc2c1)N1CCSCC1	0.1%	-4.0%	x	x	x
CCOC(=O)N1CCN(C(=O)CN2C(=O)CC(C)(C)S(=O)(=O)c3ccccc32)CC1	0.4%	-1.5%[11.4 µM]	1e-09	i	i
COc1ccc(-n2nc(C(=O)N3CCC(C#N)CC3)c3c4ccccc4n(C)c3c2=O)cc1	-1.0%	9.0%	x	x	x
CCO[Si](CCCN)(OCC)OCC	-2.9%	2.7%	x	x	x
CCOC(=O)c1ccc(NC(=O)C2CCN(S(=O)(=O)CC)CC2)cc1	2.0%	-1.1%	2.67e-08	i	i
O=C(On1c(-c2ccccc2)nc2ccccc2c1=O)c1ccco1	-18.8%	-5.1%	x	x	x
COc1ccccc1-c1nnc(NC(=O)c2ccc(S(=O)(=O)N(C)C)cc2)o1	1.2%	-2.3%	8.1e-09	i	i
COc1cccc(-c2nc3n(n2)C(c2cccs2)C(C(=O)Nc2cccnc2)=C(C)N3)c1 (configuration not stated)	-3.1%	-6.3%	x	x	x
COc1ccc(OC)c(C2=Nn3c(nnc3-c3cccc(OC(C)C)c3)SC2)c1	-0.1%	u	6.7e-09	i	i
COC(=O)c1[nH]c2ccc(C)cc2c1NS(=O)(=O)c1ccc(F)cc1	-1.3%	x	5.1e-08	i	i
O=C(NCC1CCCO1)c1ccc(COc2ccc(F)cc2)o1 (configuration not stated)	0.9%	13.8%	1.97e-08	i	i
COc1ccc(NC(=O)N2CC[C@@]3(CCCN(C(=O)c4ccncc4)C3)C2)cc1	-0.3%	-2.6%	2.01e-08	i	i
CCOC(=O)C1=C(C)Nc2nc(C)nn2C1c1ccc(OCC)c(OC)c1 (configuration not stated)	1.0%	-3.1%	x	x	x
O=C(O)C1C2C=CC(C2)C1C(=O)NCc1ccccn1 (configuration not stated)	0.3%	-8.5%	2.65e-08	i	i
O=C(Nc1ccc(Cl)cc1)NC1(C(=O)NCCCN2CCOCC2)CCCCC1	0.4%	0.4%	1e-09	i	i
COC(=O)CSc1nc2c(c(=O)n(C)c(=O)n2C)n1CCC(C)C	x	x	2.2e-09	i	i
CCN(C(=O)c1cccs1)c1nnc(-c2ccncc2)s1	-2.0%	0.4%	1.36e-08	i	i
Cn1c(NCCCO)nc2c1c(=O)n(Cc1ccccc1F)c(=O)n2C	x	x	9.42e-08	i	i
Further results:
SMILES	AID923	TSHR agonist	A647 fluor	Resorufin fluor	A488 autofl
CCCCCC(=O)N1CCN(CCN=CC2=C(O)CC(c3ccc(OC)cc3)CC2=O)CC1 (configuration not stated)	3.0%	u	1e-09	i	i
c1ccc(Cn2c(-c3cccs3)nc3nc4ccccc4nc32)cc1	6.9%	8.3%	2.01e-08	i	i
N#Cc1c(N)nc2c(c1N)CC(=O)N2c1ccccc1-c1ccccc1	0.0%	8.0%	2.3e-09	i	i
CN(Cc1ccccc1)Cc1nc2c([nH]1)c(=O)n(C)c(=O)n2C	-0.2%	-2.0%	1e-09	i	i
O=C(CN1CCC(O)(c2ccc3c(c2)OCO3)CC1)N1CCOCC1	0.6%	-4.4%	9.6e-09	i	i
Cc1ccc(C2CC(c3cccc(Br)c3)n3nc(N)nc3N2)cc1 (configuration not stated)	-2.2%	7.3%	x	x	x
COc1cc(NS(=O)(=O)c2ccc(NC(=O)COc3ccccc3Cl)cc2)nc(OC)n1	6.0%	u	1e-09	i	i
Nc1nnc(N2CCc3ccccc32)s1	-3.3%	6.2%	x	x	x
Cc1cc(NC(=O)c2cncc(Br)c2)n(-c2ccccn2)n1	0.6%	16.5%	2.6e-09	i	i

6 entries from above, ordered by length of the SMILES, falling.
SMILES	AID923	TSHR agonist	A647 fluor	Resorufin fluor	A488 autofl
N#Cc1c(N)nc2c(c1N)CC(=O)N2c1ccccc1-c1ccccc1	0.0%	8.0%	2.3e-09	i	i
O=C(CN1CCC(O)(c2ccc3c(c2)OCO3)CC1)N1CCOCC1	0.6%	-4.4%	9.6e-09	i	i
Cc1ccc(C2CC(c3cccc(Br)c3)n3nc(N)nc3N2)cc1 (configuration not stated)	-2.2%	7.3%	x	x	x
c1ccc(Cn2c(-c3cccs3)nc3nc4ccccc4nc32)cc1	6.9%	8.3%	2.01e-08	i	i
Cc1cc(NC(=O)c2cncc(Br)c2)n(-c2ccccn2)n1	0.6%	16.5%	2.6e-09	i	i
Nc1nnc(N2CCc3ccccc32)s1	-3.3%	6.2%	x	x	x

An excerpt; the hit share may differ from the screen's.
